# A1 inhib: blocks A1 activity; MEF A1-2A-BIM cells, caspase-Glo luminescence, 3 h; percent of clofoctol signal, DMSO as zero; caspase activation, % (test concentration not listed); hit rate 0.51% among 21,000; AID 2241;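 active = most replicate scores above 10, or exactly half above 10 with mean activity above 10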;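 also: effector caspase 3 and 7 activity cleaving a DEVD luciferin substrate; 50 nL library stock added to about 30 µL; numbers are from one replicate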
# BJeLR viab HTS: lowers viability of BJeLR cells | hit rate 0.64% among 30,000 | viability loss activity score, % (test concentration not listed) | BJeLR fibroblasts viability, CellTiterGlo ATP luminescence, 48 h; HRASV12, hTERT and SV40 LT/ST transformed; in the data active = viability loss activity score above about 50%; about a fifth of its hits are not listed in these tables;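 also: higher score means fewer live cells and less ATP luminescence; stock transfer was 50 or 100 nL into about 30 µL; 0% = vehicle wells and 100% = a reference killing control; one replicate is shown; the record names a cut of 85%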
# * = called active by the depositor; · = no result given.
SMILES,A1 inhib,BJeLR viab HTS
C[C@H](CO)N1C[C@H](C)[C@H](CN(C)C(=O)Nc2ccc(F)cc2)Oc2c(NC(=O)c3nc4ccccc4s3)cccc2C1=O,·,-2.3
O=C(Nc1cccnc1)c1ccc(COCC(F)(F)F)cc1,·,-8.0
Cc1cc(C(=O)Nc2cccc3c2O[C@@H](CN(C)C(=O)Nc2ccc4c(c2)OCO4)[C@H](C)CN([C@H](C)CO)C3=O)n(C)n1,·,4.0
O=C(CSc1nc2ccccc2c2nc3ccccc3n12)c1ccccc1,-1.4,5.3
CC(=O)Nc1ccc(S(=O)(=O)n2cnc3ccccc32)cc1,-0.2,4.4
COc1ccc(NC(=O)N(C)C[C@@H]2Oc3ccc(NS(C)(=O)=O)cc3C(=O)N([C@H](C)CO)C[C@H]2C)cc1,-0.1,1.0
Cn1cnc2cc3c(Nc4cccc(Br)c4)ncnc3cc21,2.9,-1.1
COc1cc(SC)ccc1C(=O)N(C)Cc1ccccc1,0.5,5.5
COc1ccc(NC(=O)Nc2cccc3c2O[C@H](CN(C)S(=O)(=O)c2ccccc2)[C@H](C)CN([C@H](C)CO)C3=O)cc1,·,-1.9
CC1(C)Cc2c(c(=O)n(-c3ccccc3)c3ncnc(N)c23)CO1,·,2.8
CC(C)NC(=O)N(C)C[C@H]1Oc2c(NC(=O)NC3CCCCC3)cccc2C(=O)N([C@@H](C)CO)C[C@@H]1C,·,2.2
C[C@@H]1CN([C@H](C)CO)C(=O)c2cccc(NC(=O)Nc3ccc4c(c3)OCO4)c2O[C@H]1CN(C)CC1CCCCC1,·,1.1
CCOc1ccc2nc(S/C=C/C(=O)c3ccc(Cl)cc3)sc2c1,·,-8.4
C[C@H]1CN([C@@H](C)CO)C(=O)c2cccc(NC(=O)NC3CCCCC3)c2O[C@@H]1CN(C)Cc1ccncc1,·,-1.6
COc1ccc(NC(=O)N(C)C[C@H]2Oc3ccc(NC(=O)Nc4cccc5ccccc45)cc3C(=O)N([C@@H](C)CO)C[C@@H]2C)cc1,0.2,2.2
Cc1cc(C(=O)Nc2cccc3c2O[C@H](CN(C)CC2CCCCC2)[C@@H](C)CN([C@@H](C)CO)C3=O)n(C)n1,·,2.0
C[C@H](CO)N1C[C@H](C)[C@H](CN(C)Cc2ccc(C(=O)Nc3ccccc3N)cc2)Oc2ccc(NC(=O)CCN3CCOCC3)cc2C1=O,·,6.7
O=C1OC(COc2ccc(Br)cc2)CN1c1ccccc1 (centres undefined),0.4,-5.2
CNC[C@@H]1Oc2c(NC(=O)Nc3ccc(C(F)(F)F)cc3)cccc2C(=O)N([C@@H](C)CO)C[C@H]1C,·,4.0
C[C@@H]1CN([C@H](C)CO)C(=O)c2cc(NS(=O)(=O)c3cn(C)cn3)ccc2O[C@@H]1CN(C)C(=O)Nc1ccc(F)cc1,0.2,-1.6
C[C@@H]1CN([C@H](C)CO)C(=O)c2cccc(NC(=O)c3cnccn3)c2O[C@H]1CN(C)Cc1ccc(-c2ccccc2)cc1,·,-6.1
C[C@@H]1CN([C@H](C)CO)C(=O)c2cc(NS(=O)(=O)c3cccs3)ccc2O[C@@H]1CN(C)Cc1ccc(C(=O)Nc2ccccc2N)cc1,·,14
C[C@@H]1CN([C@H](C)CO)C(=O)c2cc(NS(=O)(=O)c3ccccc3)ccc2O[C@@H]1CN(C)C(=O)Nc1ccc(F)cc1,0.5,1.8
C[C@@H]1CN([C@@H](C)CO)C(=O)c2cc(NC(=O)Nc3ccc(F)cc3)ccc2O[C@@H]1CN(C)Cc1ccc(C(=O)Nc2ccccc2N)cc1,·,-7.6
CCC(=O)OCC(=O)[C@@]1(OC(=O)CC)[C@@H](C)C[C@H]2[C@@H]3CCC4=CC(=O)C=C[C@]4(C)[C@@]3(Cl)[C@@H](O)C[C@@]21C,-0.5,-4.7
C[C@@H]1CN([C@H](C)CO)C(=O)c2cc(NC(=O)CCC(F)(F)F)ccc2O[C@H]1CN(C)CC1CCCCC1,-0.3,0.6
COc1ccc(N2C(=O)C3CC=CCC3C2=O)cc1 (centres undefined),-0.2,-1.7
O=C(O)CC(C(=O)Nc1cc(C(F)(F)F)cc(C(F)(F)F)c1)C1=CCCCC1 (centres undefined),0.9,1.7
Cc1ccc(S(=O)(=O)Nc2ccc3c(c2)C(=O)N([C@@H](C)CO)C[C@H](C)[C@@H](CN(C)C(=O)NC2CCCCC2)O3)cc1,-0.2,-2.6
CCOC(=O)c1c(C)oc2c1c(C=NCCc1c[nH]c3ccccc13)c(O)c1ccccc12,·,-0.5

# Reprinted at random: 3 compounds from above
SMILES,A1 inhib,BJeLR viab HTS
O=C(O)CC(C(=O)Nc1cc(C(F)(F)F)cc(C(F)(F)F)c1)C1=CCCCC1 (centres undefined),0.9,1.7
Cc1ccc(S(=O)(=O)Nc2ccc3c(c2)C(=O)N([C@@H](C)CO)C[C@H](C)[C@@H](CN(C)C(=O)NC2CCCCC2)O3)cc1,-0.2,-2.6
C[C@@H]1CN([C@H](C)CO)C(=O)c2cc(NS(=O)(=O)c3ccccc3)ccc2O[C@@H]1CN(C)C(=O)Nc1ccc(F)cc1,0.5,1.8

# The listing continues.
SMILES,A1 inhib,BJeLR viab HTS
C[C@@H]1CN([C@@H](C)CO)C(=O)c2cc(NC(=O)CCC(F)(F)F)ccc2O[C@H]1CN(C)C(=O)Nc1cccc2ccccc12,0.5,5.1
COc1ccc(S(=O)(=O)Nc2cccc3c2O[C@@H](CN(C)CC2CC2)[C@@H](C)CN([C@H](C)CO)C3=O)cc1,·,-0.2
COc1ccc(S(=O)(=O)Nc2cccc3c2O[C@@H](CN(C)C(=O)Nc2ccccc2)[C@H](C)CN([C@H](C)CO)C3=O)cc1,·,4.9
CCOC(=O)Cn1nc(C(F)(F)F)cc1C,-0.9,0.0
COc1ccc(NC(=O)Nc2cccc3c2O[C@H](CN(C)S(=O)(=O)c2ccc(F)cc2)[C@@H](C)CN([C@@H](C)CO)C3=O)cc1,·,-11
COc1ccccc1C1N(c2ccc(Cl)cc2)C(=O)N2CCCN12 (centres undefined),·,0.9
Cc1ccc(OCc2n[nH]c(=S)n2-c2ccccc2)cc1C,0.3,-6.4
CCn1c(C)c(CCC(=O)NCCCc2ccccc2)c(=O)n2nc(-c3ccccc3OC)cc12,0.7,-2.9
CNc1sc(S(C)(=O)=O)nc1S(=O)(=O)c1ccc(C)cc1,0.2,-1.0
CC(C)N=C(NS(=O)(=O)c1cccs1)c1ccccc1,0.6,2.5

# Exported as labelled records: entries from further up.
Cc1ccc(OCc2n[nH]c(=S)n2-c2ccccc2)cc1C
  A1 inhib: 0.3
  BJeLR viab HTS: -6.4

CCn1c(C)c(CCC(=O)NCCCc2ccccc2)c(=O)n2nc(-c3ccccc3OC)cc12
  A1 inhib: 0.7
  BJeLR viab HTS: -2.9

# (more compounds)
SMILES,A1 inhib,BJeLR viab HTS
CO[C@H]1O[C@H](COC(=O)c2ccccc2)[C@@H](O)[C@H](O)[C@H]1OC(=O)c1ccccc1,-0.3,6.7
COc1ccc(C2=NN(CCC(=O)NC3CC3)C(=O)CC2)cc1,-0.1,-1.9
C[C@@H]1CN([C@H](C)CO)C(=O)c2cccc(NS(=O)(=O)c3ccccc3)c2O[C@@H]1CN(C)C(=O)Nc1ccc(C(F)(F)F)cc1,·,-0.3
Cc1nc2ccccc2c2oc(C(=O)NC3CCCC3)cc12,·,-1.0
Cc1ccc(S(=O)(=O)NC(=O)NN2CCCCCC2)cc1,0.5,-1.4
COc1ccc(CN(C)C[C@H]2Oc3ccc(NC(=O)Nc4c(C)noc4C)cc3C(=O)N([C@H](C)CO)C[C@H]2C)cc1,0.5,0.6
Cc1ccc(S(=O)(=O)N(C)C[C@@H]2Oc3ccc(NC(=O)Nc4ccc(F)cc4)cc3C(=O)N([C@@H](C)CO)C[C@@H]2C)cc1,0.3,5.8
C[C@@H]1CN([C@H](C)CO)C(=O)c2cc(NC(=O)CCC(F)(F)F)ccc2O[C@H]1CN(C)S(=O)(=O)c1ccc(Cl)cc1,-0.1,6.1
CC(=O)OCOC(=O)CN(CC(=O)OCOC(C)=O)c1ccccc1OCCOc1ccccc1N(CC(=O)OCOC(C)=O)CC(=O)OCOC(C)=O,2.1,-4.4
COc1ccc(S(=O)(=O)N(C)C[C@@H]2Oc3ccc(NS(=O)(=O)c4ccc(C)cc4)cc3C(=O)N([C@@H](C)CO)C[C@H]2C)cc1,0.0,-2.5
C[C@H](CO)N1C[C@H](C)[C@H](CN(C)Cc2ccccc2)Oc2ccc(NC(=O)CCN3CCOCC3)cc2C1=O,-0.6,-1.2
CCCc1cc(=O)oc2cc(OCC(=O)OCc3ccccc3)ccc12,0.3,-5.7
COc1ccc(C2Oc3c(OC)cc(CCCO)cc3C2COC2OC(CO)C(O)C(O)C2O)cc1OC (centres undefined),0.3,-5.4
CCC(C)(C)n1c(=O)[nH]c2c(c1=O)CCC2,0.5,-1.5
CC(C)N(C(=O)C[n+]1ccc(/C=N/O)cc1)C(C)C,0.2,-3.4
CC(Sc1ccccn1)C(=O)Nc1ccc(S(N)(=O)=O)cc1 (centres undefined),0.8,-0.4
C[C@H](CO)N1C[C@H](C)[C@@H](CN(C)Cc2ccc(C(=O)O)cc2)Oc2c(NC(=O)C3CCCCC3)cccc2C1=O,·,-0.2
CCN(CCO)C(=O)CCN1C(=O)/C(=C/c2ccc(OC)c(OC)c2)SC1=S,·,2.5
C[C@@H]1CN([C@@H](C)CO)C(=O)c2cc(NC(=O)Nc3ccc(F)cc3)ccc2O[C@H]1CN(C)S(C)(=O)=O,0.0,-0.1
C[C@@H]1CN([C@H](C)CO)C(=O)c2cc(NS(C)(=O)=O)ccc2O[C@@H]1CN(C)C(=O)Nc1ccc(C(F)(F)F)cc1,0.4,0.0

# 3 entries out of the list above, sorted by the number in A1 inhib, rising:
molecule	A1 inhib
CC(C)N(C(=O)C[n+]1ccc(/C=N/O)cc1)C(C)C	0.2
C[C@@H]1CN([C@H](C)CO)C(=O)c2cc(NS(C)(=O)=O)ccc2O[C@@H]1CN(C)C(=O)Nc1ccc(C(F)(F)F)cc1	0.4
CCC(C)(C)n1c(=O)[nH]c2c(c1=O)CCC2	0.5

# (further entries)
SMILES,A1 inhib,BJeLR viab HTS
Cc1cccc(NC(=S)NCCCN2CCOCC2)c1,-0.2,2.4
Cc1ccc(S(=O)(=O)N(C)C[C@@H]2Oc3ccc(NS(=O)(=O)c4cn(C)cn4)cc3C(=O)N([C@H](C)CO)C[C@@H]2C)cc1,0.5,4.3
C[C@@H]1CN([C@@H](C)CO)C(=O)c2cc(NS(=O)(=O)c3ccc(F)cc3)ccc2O[C@H]1CN(C)C,0.6,0.4
CC(=O)NC1=NC(=O)/C(=C/c2cccc(Oc3ccccc3)c2)S1,1.0,2.3
CCc1ccc(S(=O)(=O)N2CCSC2c2ccccc2)cc1 (centres undefined),-0.1,-1.9
COC(=O)C1=CN(CCc2ccc(F)cc2)C=C(C(=O)OC)C1c1ccccc1C(F)(F)F,0.5,-1.4
S=C(SCSc1nc2ccccc2s1)N1CCCCC1,-1.8,1.7
OC1CCCN(Cc2ccccc2)C1 (centres undefined),0.5,-1.2
Nc1cc(=O)nc(SCC(=O)NCc2ccccc2)n1-c1ccccc1,0.0,4.2
O=C(CCc1ccccc1)Nc1cccnc1,-4.5,4.4
C[C@@H]1CN([C@H](C)CO)C(=O)c2cc(NC(=O)CCCN(C)C)ccc2O[C@H]1CN(C)C(=O)Nc1ccc(F)cc1,0.0,-5.9
CC1=C(C)CC(C(=O)c2ccc(C)cc2)C(C(=O)O)C1 (centres undefined),-0.3,-2.8
C[C@@H]1CN([C@@H](C)CO)C(=O)c2cccc(NS(=O)(=O)c3ccccc3)c2O[C@H]1CN(C)Cc1ccc(Oc2ccccc2)cc1,·,2.9
Cc1noc(C)c1S(=O)(=O)N(C)C[C@@H]1Oc2ccc(NS(=O)(=O)c3ccccc3)cc2C(=O)N([C@H](C)CO)C[C@@H]1C,-0.5,1.5
COc1ccc(NC(=O)Nc2ccc3c(c2)C(=O)N([C@@H](C)CO)C[C@@H](C)[C@@H](CN(C)Cc2ccc(Cl)c(Cl)c2)O3)cc1,0.5,7.3
Nc1nonc1N1CCCCC1,0.2,2.5
Cc1ccc(S/C(=C/N(C)C)C(=O)c2ccc(C)cc2)cc1,-1.7,5.8
C[C@H](CO)N1C[C@H](C)[C@@H](CN(C)Cc2ccc3c(c2)OCO3)Oc2c(NC(=O)NC3CCCCC3)cccc2C1=O,·,1.4
C[C@H](CO)N1C[C@H](C)[C@@H](CN(C)S(C)(=O)=O)Oc2c(NC(=O)c3nc4ccccc4s3)cccc2C1=O,·,2.8
CC(C)NC(=O)N(C)C[C@H]1Oc2ccc(NC(=O)Nc3cccc4ccccc34)cc2C(=O)N([C@H](C)CO)C[C@@H]1C,-0.1,-5.3
C[C@H](CO)N1C[C@H](C)[C@@H](CN(C)S(=O)(=O)c2ccc(Cl)cc2)Oc2ccc(NC(=O)Nc3cccc4ccccc34)cc2C1=O,1.0,0.2
C=C1C2=CC(=O)O[C@@H](c3ccoc3)[C@]2(C)CCC1[C@@]1(C)C=CC(=O)C(C)(C)[C@@H]1CC(=O)OC (some centres undefined),-0.5,2.3
CCOc1ccc(-c2cc(C(=O)NCCCN3CCCCC3)c3ccccc3n2)cc1,2.6,22
CCCCN(Cc1ccccc1)S(=O)(=O)c1ccc2c(c1)oc(=O)n2CC(=O)OCC,·,-1.4
CCSC(=O)NC1CCCCC1,-1.4,-2.2
COc1ccc(CCN(C)C(=O)C2CCCN(Cc3ccc(OC)c(OC)c3)C2)cc1OC (centres undefined),·,-1.5
Clc1ccc2nc(N3CCCCC3)[nH]c2c1,-5.0,2.3
Cc1[nH]c2ccccc2c1C(Nc1ccccn1)c1ccc(C(F)(F)F)cc1 (centres undefined),·,-3.8
C=CCn1c(-c2ccccc2Cl)nc2ccccc21,-0.8,0.7

# Assay outcomes deposited in PubChem by Broad Institute.

# A portion of the library (hit frequency here may not be typical).
